# Screening data from PubChem BioAssay.
# CBX7 AlphaScr: inhibitors of human CBX7 binding to H3K27me3 peptide; AID 1224903; 66,000 compounds, 1.1% hits; normalised signal (fraction of DMSO) (no concentration beside the values); AlphaScreen His6-CBX7 / biotin-H3K27me3 peptide binding; active compounds read low; in the data active = normalised signal below about 0.5;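 also: 100 nL library stock added to about 20 µL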
# Target sequence (O95931 whole entry, looked up): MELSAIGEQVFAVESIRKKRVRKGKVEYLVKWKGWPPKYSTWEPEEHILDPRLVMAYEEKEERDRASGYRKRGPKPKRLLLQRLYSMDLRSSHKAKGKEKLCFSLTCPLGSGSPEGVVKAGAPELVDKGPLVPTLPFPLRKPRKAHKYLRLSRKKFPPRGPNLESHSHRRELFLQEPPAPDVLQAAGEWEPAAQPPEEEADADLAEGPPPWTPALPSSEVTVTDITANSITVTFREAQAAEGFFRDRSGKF
# CBX7 AlphaScr z-score: further read-out of CBX7 AlphaScr, marked with its call; z-score; measured here: z-score of CBX7 signal; some inactives read as strong as hits; reference of the scale not given here;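 same signal on another scale; lower means less binding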
# Active calls of the source: *; & = joins results of further samples. These rows are one share of the data. The share of hits here may be higher or lower than overall.
SMILES,CBX7 AlphaScr,CBX7 AlphaScr z-score
CCCNC(=O)c1ccc2c(c1)N=C(C)c1c(C)ccc(C)c1S2,1.1,1.2
Cc1ccc(Nc2cc(C(=O)NCCc3ccc(Cl)cc3)c3ccccc3n2)c(C)c1,0.9,-1.6
Cc1ccc(NC(=O)CCn2ccnc2C)cc1C,1.1,1
CCCC1=Nc2cc(C(=O)NC(C)CCc3ccccc3)ccc2Sc2ccccc21 (configuration not stated),1,0.64
CCOc1ccccc1NC(=O)CCC(=O)Nc1ccc2nc(N3CC(C)CC(C)C3)cc(C)c2c1 (configuration not stated),0.98,-0.53
CCOC(=O)c1cnc2cc(C(F)(F)F)ccc2c1NCC1COc2ccccc2O1 (configuration not stated),1.5,8.5
COc1cc(CNc2nc3ccccc3[nH]2)cc(OC)c1OC,0.96,-0.77
CCCCOc1ccc(C(=O)Nc2ccc3oc(-c4ccc(F)cc4)nc3c2)cc1,1,0.25
CCOC(=O)c1c(NC(=O)c2ccnn2C)sc(C)c1C,0.98,-0.2
Fc1cccc(Cl)c1Cc1noc(-c2cccc(Br)c2)n1,1.7,7.3
Cc1ccccc1OCCCC(=O)Nc1nccs1,0.94,-1.7
Cc1cccn2cc(-c3ccc(S(=O)(=O)N4CCOCC4)cc3)nc12,1.1,0.44
CCOC(=O)c1cnc2cc(C(F)(F)F)ccc2c1N1CCN(c2ccc(OC)cc2)CC1,0.92,-2.5
O=C(O)CCC(=O)N1CCc2cc(S(=O)(=O)Nc3ccc4c(c3)OCCO4)ccc21,0.99,-0.25
N#Cc1cnc(Nc2nc3ccccc3s2)nc1-c1ccccc1,1.1,3.9
CCOc1ccc(CN2C(=O)CCC2(C)C(=O)NC2CCCC(C)C2C)cc1OC (configuration not stated),1.1,1.5
O=C(CCNS(=O)(=O)c1ccc2c(c1)CCC(=O)N2)Nc1cccc(F)c1,1.1,2.1
CCCNC(=O)c1nn2c(C(F)(F)F)cc(-c3ccccc3)nc2c1Br,1.1,3.1
CCN(CCNC(=O)C1CCN(S(=O)(=O)CC)CC1)c1ccccc1,1,0.7
O=C(O)c1cc(-c2ccccn2)nc2ccc(S(=O)(=O)N3CCOCC3)cc12,1.3,0.37
O=C(Cn1ncc2c1-c1ccccc1OC2)NCCC1=CCCCC1,0.91,-1.2
CC(=O)N1CCc2cc(S(=O)(=O)N(C)Cc3ccccc3)ccc21,1,-0.092
CC1CCN(S(=O)(=O)c2ccc3[nH]c(=O)cc(C(=O)NCCCN4CCCC4)c3c2)CC1,0.89,-2
COc1ccc(CCNC(=O)C(=O)Nc2ccccc2F)cc1,1,0.47
COc1cccc(C(=O)Nc2c(-c3ccc(F)cc3)nc3ccccn23)c1OC,0.95,-1.4

# (next part)
SMILES,CBX7 AlphaScr,CBX7 AlphaScr z-score
CCCCNC(=O)c1cn(-c2ccc(Cl)cc2)c(=O)c2ccccc12,0.95,-1
COc1ccc2[nH]cc(S(=O)(=O)c3ccc(Cl)cc3)c(=O)c2c1,1.1,1.4
COc1cc2c(cc1OC)C1C(C(=O)Nc3ccccc3C)c3ccccc3C(=O)N1CC2 (configuration not stated),1.1,3.4
CCOC(=O)c1sc(Nc2ccc(S(N)(=O)=O)cc2)nc1C,1,0.11
Cc1cc(N2CCC(C(=O)N3C(C)CCCC3C)CC2)n2nc(C)c(-c3ccc(Cl)cc3)c2n1 (configuration not stated),1.1,0.23
CC1CC(C)CN(CCCNC(=O)CCn2nc(-c3ccccc3)ccc2=O)C1 (configuration not stated),1.1,2.8
O=C(Cn1cnc2c(nnn2Cc2ccc(F)cc2)c1=O)N1CCCCCC1,0.96,-0.64
O=S1(=O)N=C(Nc2cc(Cl)cc(Cl)c2)c2ccccc21,1.1,3.2
Cc1ccc(CNC(=O)c2cc3ccccn3n2)cc1,1.3,1.9
Cc1nc(Nc2ccc(F)c(Cl)c2)c2c(C)c(C)sc2n1,0.99,-0.2
Cc1c(C(N)=O)sc2nc(-c3ccccc3)cn12,0.98,-0.68
CCCn1c(CCNC(=O)Cc2ccccc2)nc2ccccc21,0.98,-0.29
COc1ccc(CNS(=O)(=O)c2ccc(C3CNC(=O)C3)cc2)cc1 (configuration not stated),1.1,2.4
COc1ccc(C(=O)CSc2nc(C)cc(=O)[nH]2)cc1C,0.97,-0.65
COc1ccccc1-c1cc(C(F)(F)F)nc(S(=O)(=O)CCCC(=O)N2CCOCC2)n1,1.1,0.5
Cc1cccc(NC(=O)c2cc(S(=O)(=O)N3CC(C)CC(C)C3)ccc2F)c1 (configuration not stated),1.1,0.59
O=C(NCCCN1CCOCC1)C1CC(c2ccc(F)cc2)=NO1 (configuration not stated),1,1.7
Cc1ccc(-c2nn(CC(=O)Nc3ccc(Cl)c(Cl)c3)c(=O)c3ccccc23)cc1,1.1,1.8
O=C(NCCCN1CCOCC1)c1ccc2nc(-c3cccs3)c(-c3cccs3)nc2c1,1.1,0.072
Cc1cccc(C)c1N1C(=O)c2ccc(C(=O)O)cc2C1=O,1,0.18
CCCCNC(=O)c1cccnc1SCC(=O)Nc1ccc(OC)cc1OC,1.1,1.2
COc1cc2c(c(OC)c1)C(c1ccc(OC(C)C)cc1)CC(=O)N2 (configuration not stated),0.86,-1.8
CC1CCCCN1C(=O)C1CC(c2ccc(F)cc2)=NO1 (configuration not stated),1,0.28
Cc1cccc(NS(=O)(=O)c2ccc3[nH]c(=O)[nH]c3c2)c1,0.78,-2.6
C=CCN1C(=O)C(O)(c2c[nH]c3ccccc23)c2cc(Br)ccc21 (configuration not stated),0.79,-1.9

# (list continues)
SMILES,CBX7 AlphaScr,CBX7 AlphaScr z-score
Cc1ccc(Nc2c(-c3ccc(O)cc3)nc3sccn23)c(C)c1,0.76,-4.8
Cn1c(C2CC(=O)N(c3ccc(Br)cc3)C2)nc2ccccc21 (configuration not stated),0.96,-0.26
O=C(NCCc1ccc(Cl)cc1)C1CCN(S(=O)(=O)c2cccnc2)CC1,0.98,-0.58
COCc1cc(C)nc(SCC(=O)Nc2cccc(C)c2C)c1C#N,1,0.85
O=C(CN1C(=O)CSc2ccc(S(=O)(=O)N3CCCCCC3)cc21)NC1CCCC1,0.96,-0.7
CC(C)CCNC(=O)c1ccc2c(c1)N(Cc1ccc(F)cc1)CCS2,0.94,-0.34
CCOC(=O)N1CCC(N2Cc3cccc(C(=O)NC(C)c4ccc5c(c4)OCCO5)c3C2=O)CC1 (configuration not stated),0.96,-0.7
Cc1noc(/C=C/c2cccs2)c1S(=O)(=O)N1CCCC(C(=O)Nc2ccncc2)C1 (configuration not stated),1.1,1.9
Cc1ccc2nc(-c3ccncc3)c(Nc3ccc4c(c3)OCO4)n2c1,0.86,-3.6
CCC(=O)N1CCN(c2nc(-c3ccccc3)c3c(c2C#N)CCCC3)CC1,0.87,-0.16
Cn1c(N2CCN(C(c3ccccc3)c3ccccc3)CC2)nc2ccccc21,0.95,-0.7
COc1ccc(-c2cc(C(F)(F)F)nc(-n3nc(C(F)(F)F)cc3C)n2)cc1,1.2,5.9
CCOc1ccc(S(=O)(=O)c2cn(Cc3ccc(C)cc3)c3ccc(OC)cc3c2=O)cc1,0.88,-4.5
Cc1ccc(-n2c(Cc3cccn3C)nnc2SCC(=O)Nc2ccc(C)cc2C)cc1,0.99,-0.34
Cc1cc(C)cc(NC(=O)CN2C(=O)CC(c3ccccc3)Sc3ccccc32)c1 (configuration not stated),0.9,-1.7
FC(F)(F)C(F)(F)c1nnc2ccc(Sc3nc4ccccc4s3)nn12,1,0.54
Cc1[nH]c2c(ccc3ccccc32)c(=O)c1CN1CCCCC1C (configuration not stated),1.1,2.3
COCCCNC(=O)CCc1c(C)nc2cc(-c3ccc(OC)cc3OC)nn2c1C,1.1,1
Cc1ccc(CCNC(=O)C(NS(=O)(=O)c2ccc3nc(C)sc3c2)C(C)C)cc1 (configuration not stated),1.1,2.7
COc1ccc(CCNC(=O)Cn2nc(-c3ccccc3)c3cc(Cl)ccc32)cc1OC,0.95,-1.7
O=C(NCCc1ccccc1)C1c2ccccc2C(=O)N1CCc1ccccc1 (configuration not stated),0.89,-0.41
CSCCC1(C(=O)O)NC(c2ccc(O)cc2O)C2C(=O)N(Cc3ccccc3)C(=O)C21 (configuration not stated),1,0.96
Cc1ccc(S(=O)(=O)Nc2ccccc2C(=O)Nc2c(C(N)=O)oc3ccccc23)cc1,1,0.56
COc1ccc(CC(=O)Nc2ccc(-c3noc(COc4ccccc4Cl)n3)cc2)cc1,1.2,2.8
Cc1ccc(S(=O)(=O)N(C)Cc2nc(-c3ccc(Br)cc3)no2)cc1,1,0.051

# Taken from above:
# O=C(NCCc1ccccc1)C1c2ccccc2C(=O)N1CCc1ccccc1 (configuration not stated) | CBX7 AlphaScr: 0.89
# Cc1ccc(S(=O)(=O)N(C)Cc2nc(-c3ccc(Br)cc3)no2)cc1 | CBX7 AlphaScr: 1
# Cc1ccc(S(=O)(=O)Nc2ccccc2C(=O)Nc2c(C(N)=O)oc3ccccc23)cc1 | CBX7 AlphaScr: 1
# CC(C)CCNC(=O)c1ccc2c(c1)N(Cc1ccc(F)cc1)CCS2 | CBX7 AlphaScr: 0.94
# CCOc1ccc(S(=O)(=O)c2cn(Cc3ccc(C)cc3)c3ccc(OC)cc3c2=O)cc1 | CBX7 AlphaScr: 0.88
# COc1ccc(CCNC(=O)Cn2nc(-c3ccccc3)c3cc(Cl)ccc32)cc1OC | CBX7 AlphaScr: 0.95

# Next section.
SMILES,CBX7 AlphaScr,CBX7 AlphaScr z-score
COc1cc2cc(-c3ccccc3)nc(Cc3ccccc3)c2cc1OC,1.1,2.4
CCOC(=O)c1ccccc1NC(=O)c1cc2c(s1)-c1c(C)cccc1OC2,1.1,2.6
CCOC(=O)c1nc(Nc2cc(Cl)ccc2OC)c2ccccc2n1,1,0.71
Cc1ccc(C)c(NC(=O)C(CC(C)C)NS(=O)(=O)c2ccc3nc(C)sc3c2)c1 (configuration not stated),1,0.68
COC(=O)CNC(=O)c1cnc(Nc2ccc(OC)cc2)c2ccccc12,1.1,1.3
CCCN(C(=O)Cn1nc(Cc2cccnc2)c2ccccc2c1=O)c1cccc(C)c1,1.1,2
CCOC(=O)c1cnc2c(C)cc(Cl)cc2c1Nc1ccc(OC)cc1,0.99,-0.032
COc1ccc(-c2nnc(NC(=O)c3cccc(C)c3)s2)c(OC)c1,1.1,2.5
CCCCN(CC)S(=O)(=O)c1ccc2c(c1)CCN2C(=O)C1CC1,1.1,0.4
CCc1cccc(NC(=O)Cn2c(SCc3ccc(C)cc3)nc3ccncc32)c1,0.77,-0.94
CNC(=O)c1ccc(Nc2nnc(-c3ccc(C)c(S(=O)(=O)NC(C)(C)C)c3)c3ccccc23)cc1,0.95,-0.85
CCOC(=O)c1ccc(NC(=O)Cn2ncc3c2-c2ccccc2OC3)cc1,0.94,-0.33
CCOC(=O)c1cnc2c(OC)cccc2c1Nc1ccc(C)c(F)c1,0.94,-0.95
Cc1cccc2nc(-c3cccs3)c(Nc3ccc4c(c3)OCCO4)n12,0.93,-0.1
Cc1ccc(NC(=O)CCCN2C(=O)c3cccnc3C2=O)c(Cl)c1,0.79,-3.5
Cc1ccc(NC(=O)c2cc(CC(C)C)on2)cc1,1.2,0.89
COc1ccc(NC(=O)c2cc3n(n2)C(C(F)(F)F)CC(c2ccc4c(c2)OCO4)N3)cc1 (configuration not stated),1,0.027
Cc1ccccc1-c1nc(CSCC(=O)NCc2cccs2)c(C)o1,1.1,0.27
CCn1c(C(=O)N2CCC(C(=O)NCc3cccs3)CC2)cc2sccc21,0.83,-0.75
COc1ccc(Nc2nc(C)nc3sc4c(c23)CCC4)c(OC)c1,0.99,-0.2
Cc1ccc2c(c1)N(CC(=O)NCCCN1CCCCC1)C(=O)CO2,1,0.6
COc1cc(NC(=O)c2cccs2)c2ncccc2c1,1.1,0.9
CC(c1ccccc1)N1CC(C(=O)N2CCN(c3ccccc3)CC2)CC1=O (configuration not stated),1,0.24
CC(C)CCN1C(=O)c2ccccc2C1C(=O)NCc1cccnc1 (configuration not stated),1,0.025
COCCn1c(SCC(=O)N2CCN(c3ccccc3)CC2)nnc1-c1c[nH]c2ccccc12,0.99,-0.056

# No new results follow: an excerpt of the list.
SMILES,CBX7 AlphaScr,CBX7 AlphaScr z-score
CCCNC(=O)c1ccc2c(c1)N=C(C)c1c(C)ccc(C)c1S2,1.1,1.2
Cc1ccc(Nc2cc(C(=O)NCCc3ccc(Cl)cc3)c3ccccc3n2)c(C)c1,0.9,-1.6
Cc1ccc(NC(=O)CCn2ccnc2C)cc1C,1.1,1

# New compounds follow.
SMILES,CBX7 AlphaScr,CBX7 AlphaScr z-score
Cc1ccc2[nH]cc(CCNC(=O)c3ccccc3)c2c1,1.2,1.4
COc1ccc(-c2nc(CS(=O)(=O)CC(=O)NCCCc3ccccc3)c(C)o2)cc1,1.1,1.4
CCC1=Nc2cc(C(=O)NC3CCCC3)ccc2Sc2ccc(Br)cc21,0.95,-2.7
c1ccc(-c2nnc(Sc3nc4ccccc4[nH]3)c3ccccc23)cc1,0.96&0.81,-0.96&-0.22
O=C(NCc1cccnc1)c1ccc(Cl)c(NC2=NC3CS(=O)(=O)CC3S2)c1 (configuration not stated),0.91,-1.7
CCCC(=O)Nc1ccc(-c2nc3cc(C(C)C)ccc3o2)cc1,1,1.2
Clc1ccc(/C=C/c2nc3ccccc3n2Cc2ccccc2)cc1,2,51
CCOC(=O)N1CCC(Nc2c(N3CCCCC3)c(=O)c2=O)CC1,1,0.56
CCn1c(SCC(=O)Nc2ccc(Br)cc2)nnc1-c1cccnc1,1.1,3
Fc1ccc(-c2cc(C(F)(F)F)nc(N3CCCCCC3)n2)cc1,1.7,7.5
Cc1cccc(-n2c(Cc3cc(=O)[nH]c(=O)[nH]3)nnc2SCC(=O)N2CCc3ccccc32)c1,1.1,0.27
CC(=O)N1CCc2cc(S(=O)(=O)NCCC(=O)N3CCc4ccccc4C3)ccc21,1,0.76

# Quoted at random: 3 compounds from above, in no set order.
SMILES,CBX7 AlphaScr,CBX7 AlphaScr z-score
CCCNC(=O)c1ccc2c(c1)N=C(C)c1c(C)ccc(C)c1S2,1.1,1.2
FC(F)(F)C(F)(F)c1nnc2ccc(Sc3nc4ccccc4s3)nn12,1,0.54
COC(=O)CNC(=O)c1cnc(Nc2ccc(OC)cc2)c2ccccc12,1.1,1.3
